Screens deposited in PubChem BioAssay by National Center for Advancing Translational Sciences (NCATS).
LASV entry inh – inhibitors of Lassa virus binding or cell entry | AID 540256 | Potency, µM (titrated, usually from 37.9 µM), inactives show top-dose activity change, negative = inhibition, most hits filed as inhibitors | 1.2% of 300,000 active | Lassa virus pseudotype entry inhibition, cell reporter; control for the full effect not named in the record; active means well fitted inhibition curve with a large enough effect; inconclusive means small, poorly fitted or top-dose-only effect, or effect the other way; inactive means flat fitted curve, though single readings scatter; tested in HEK293 cells; also: % is scaled to controls: 0 for no effect and ±100 for the full control effect; nearly all actives have a fitted effect of over 50% in size; luciferase read-out
2A StopGo – FMDV 2A StopGo reporter, luciferase signal | Potency, µM (doses to about 57.9 µM), for inactives: top-dose signal change, negative = less light | 1.2% of 410,000 active | human cells with a luciferase reporter of 2A StopGo recoding; control for the full effect not named in the record; active = well fitted falling curve with a large enough effect; inconclusive = small, poorly fitted or top-dose-only effect; inactive = no such curve, though single readings can be large or run the other way; tested in HEK293T cells; also: % is scaled to controls: 0 for no effect and ±100 for the full control effect; nearly all actives have a fitted effect of over 45% in size; luciferase light after 4 h
SARS PLP yeast – inhibitors of SARS-CoV papain-like protease in yeast; Potency, µM (highest dose often 32.9 µM), for inactives: at the highest dose activity, positive = growth rescue; S. cerevisiae expressing SARS-CoV PLpro, growth rescue; control for the full effect not named in the record; AID 485353; 0.19% of 330,000 active; also: 0% is about no effect; nearly all actives have a fitted effect of over 55% in size; growth read by luminescence after 48 h
NS1 inh – influenza NS1 inhibition | AID 2326 | Potency, µM (series often up to 46.1 µM), for the others: at the highest dose activity, positive = more growth | 0.4% of 270,000 active | S. cerevisiae slowed by influenza A NS1, growth recovery by OD600; also: actives are rising curves; nearly all actives have a fitted effect of over 50% in size
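Recovery from NS1-induced slow growth read by OD600 in budding yeast switched to galactose assay medium (pH 6.0, -URA) at 1:100 dilution. Compound 23 nl per well; the matching strain lacking NS1 serves as control.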
Cruzain Triton – cruzain (T. cruzi) inhibition with detergent. 0.43% of 200,000 active. Potency, µM, inactives show max response, negative = inhibition, actives largely listed as inhibitors. P25779. purified cruzain, Z-FR-AMC fluorescence, 0.01% Triton; active = well fitted curve in the direction sought with a large enough effect; inconclusive = small, poorly fitted or top-dose-only effect, or another doubt; inactive = no such curve, though single readings can be large; an effect the other way counts as inactive or inconclusive;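 also: plate controls were neutral wells for no effect and buffer without enzyme for full effect; nearly all actives have a fitted effect of over 40% in size; top concentration of the series not given in the record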
Target sequence (P25779 123-467 limits assumed): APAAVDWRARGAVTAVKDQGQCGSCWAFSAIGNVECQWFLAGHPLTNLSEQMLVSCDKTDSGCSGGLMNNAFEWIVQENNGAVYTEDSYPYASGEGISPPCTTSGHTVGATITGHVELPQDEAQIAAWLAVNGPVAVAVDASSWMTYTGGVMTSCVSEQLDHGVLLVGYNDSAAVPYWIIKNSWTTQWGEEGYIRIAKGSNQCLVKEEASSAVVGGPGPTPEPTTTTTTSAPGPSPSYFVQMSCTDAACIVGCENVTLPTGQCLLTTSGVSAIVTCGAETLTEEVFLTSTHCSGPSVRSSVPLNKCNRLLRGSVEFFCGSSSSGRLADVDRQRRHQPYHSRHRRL
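Compounds were screened in titration against cruzain (1.5 nM) with 0.01% Triton X-100 to counter colloidal aggregation. Activity was the AMC fluorescence increase over 60 s after adding 2 uM Z-FR-AMC at pH 5.5.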
Marburg entry inh – blocks Marburg virus binding to or entry into cells; Marburg virus pseudotyped entry inhibition, cell reporter; control for the full effect not named in the record; about a third of the inactives were read at about 46 µM; 1.8% of 300,000 active; Potency, µM (highest dose often 37.8 µM), for inactives: at the highest dose activity change, negative = inhibition, usual class: inhibitors; active = well fitted inhibition curve with a large enough effect; inconclusive = small, poorly fitted or top-dose-only effect, or effect the other way; inactive = flat fitted curve, though single readings scatter; tested in HEK293 cells; about a fifth of its hits are not listed in these tables; also: % is scaled to controls: 0 for no effect and ±100 for the full control effect; luciferase read-out
Cruzain inh noDet – inhibitors of Trypanosoma cruzi cruzain without detergent; purified cruzain, Z-FR-AMC fluorescence, no detergent; Potency, µM, for inactives: max response, negative = inhibition, most hits filed as inhibitors; 2.3% of 200,000 active; active = well fitted curve in the direction sought with a large enough effect; inconclusive = small, poorly fitted or top-dose-only effect, or another doubt; inactive = no such curve, though single readings can be large; an effect the other way counts as inactive or inconclusive;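 also: plate controls were enzyme without inhibitor for no effect and buffer without enzyme for full effect; nearly all actives have a fitted effect of over 40% in size; top concentration of the series not given in the record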
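Detergent-free condition (0.00005% Triton X-100) in acetate buffer pH 5.5 with DTT. 1.5 nM enzyme and compound were pre-mixed 15 min, then 2 uM Z-FR-AMC substrate added; reaction progress from fluorescence change between first and third reads (60 s).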
RE007 growth inh – less growth of the S. pombe RE007 Vpr strain | S. pombe RE007 Vpr strain, BacTiter-Glo ATP luminescence, 24 h; control for the full effect not named in the record | Potency, µM (top dose mostly 92.2 µM), for inactives: at the highest dose activity change, negative = less growth | 0.21% of 360,000 active | AID 651644; active = well fitted falling curve with a large enough effect; inconclusive = small, poorly fitted or top-dose-only effect; inactive = no such curve, though single readings can be large or run the other way;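 also: % is scaled to controls: 0 for no effect and ±100 for the full control effect; nearly all actives have a fitted effect of over 50% in size; the assay follows cell death caused by Vpr and the record does not say whether a fall means rescue or toxicity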
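Fission yeast strain RE007, carrying one chromosomally integrated HIV-1 vpr copy, was seeded at OD 0.01 in PMG+AL medium with 23 nL pinned compound. After 24 h at 30 °C and 99% humidity, viability was read by BacTiter-Glo luminescence.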
* marks the source's active call; other numbers are inactive results; & = joins results of further samples; [ ] = remark or other dose. Unless noted, calls follow the shape of the dose curve; as a rule, active means well fitted rising curve with a large enough effect; inconclusive means small, poorly fitted or top-dose-only effect; inactive means no such curve, though single readings can be large or run the other way. Potency is read from the fitted curve at half-maximal effect.

For O=C(CCNC(=O)c1ccc([N+](=O)[O-])cc1)Nc1ccc(F)c(F)c1F the results were LASV entry inh -9%, 2A StopGo -5%, SARS PLP yeast 0%, NS1 inh 6%, Marburg entry inh 2% and RE007 growth inh 29%.
For C/C(CC(=O)Nc1ccc(Cl)c(Cl)c1)=N\NC(N)=S the results were LASV entry inh inconclusive, 2A StopGo -7%, SARS PLP yeast 12%, NS1 inh 17%, Cruzain Triton 0.5µM*, Marburg entry inh -3%, Cruzain inh noDet 0.32µM* and RE007 growth inh 0%.
`CCc1ccc(Oc2nnnn2-c2ccc(C(N)=O)cc2)cc1` gave 2A StopGo 0%, SARS PLP yeast 0%, NS1 inh -2% and RE007 growth inh -11%.
O=C1CSC(=S)N1c1cccnc1 was read as LASV entry inh inconclusive, SARS PLP yeast 5%, NS1 inh -80%, Cruzain Triton -0.4%, Marburg entry inh -18%, Cruzain inh noDet -4% and RE007 growth inh -20%.
Screening Cc1ccc(-c2nc(C3CCCN(S(=O)(=O)c4ccc(C(F)(F)F)cc4)C3)no2)cc1 (centres undefined) returned LASV entry inh inconclusive, 2A StopGo 4%, SARS PLP yeast 0%, NS1 inh 5%, Cruzain Triton 6.2%, Marburg entry inh 19%, Cruzain inh noDet 6% and RE007 growth inh 1%.
Screening CC(=O)Nc1ccc(NC(=O)CSc2nccn2Cc2ccc(Cl)cc2)cc1 returned 2A StopGo inconclusive, SARS PLP yeast 4%, NS1 inh -21% and RE007 growth inh -2%.
`Cc1onc(-c2ccccc2Cl)c1C(=O)NNC(=O)c1cccc(F)c1` gave LASV entry inh 3%, 2A StopGo -7%, SARS PLP yeast 1%, NS1 inh -2%, Marburg entry inh -2%[46.1 µM] and RE007 growth inh 9%.
CCCN(CCC)CCNC(=O)CN1C(=O)COc2ccc(S(=O)(=O)N3CCOCC3)cc21 was read as LASV entry inh 19%[46.1 µM], 2A StopGo -21%&-11%, SARS PLP yeast -1%, NS1 inh -7%, Cruzain Triton 2.0%, Marburg entry inh -1%&-1%[46.1 µM], Cruzain inh noDet -4% and RE007 growth inh 2%.
CC(=O)N1c2ccc(S(=O)(=O)NCCC(=O)NCc3ccc(F)cc3)cc2CC1C (centres undefined) was read as 2A StopGo -3%, SARS PLP yeast -2%, NS1 inh -12% and RE007 growth inh 8%.
`CCCOc1ccc(C2/C(=C(/O)c3ccc(F)cc3)C(=O)C(=O)N2CCCN(C)C)cc1` (centres undefined) gave LASV entry inh -5%, 2A StopGo 0%, SARS PLP yeast 1%, NS1 inh 9%, Cruzain Triton -0.7%, Marburg entry inh 9%, Cruzain inh noDet 1% and RE007 growth inh 1%.
O=C(NCC(c1cccnc1)N1CCN(Cc2ccccc2)CC1)C(=O)Nc1ccc(Cl)cc1 (centres undefined) was read as LASV entry inh -12%[46.1 µM], 2A StopGo inconclusive, Cruzain Triton -8.4% and Cruzain inh noDet -3%.
CCc1ccc(N2C(=O)NC(=O)/C(=C\c3cc(C)n(-c4cc(C(=O)O)cc(C(=O)O)c4)c3C)C2=O)cc1 was read as LASV entry inh inconclusive, 2A StopGo -5%, SARS PLP yeast 2%, NS1 inh 4%, Marburg entry inh 8%[46.1 µM] and RE007 growth inh 10%.
`C/C(=N\NC(=O)c1cc2ccccc2cc1O)c1ccc(C)o1` gave LASV entry inh 0%, 2A StopGo 23%, SARS PLP yeast -2%, NS1 inh 26%, Marburg entry inh -2% and RE007 growth inh -10%.
`Cc1ccc(C2(C(F)(F)F)N=C3Sc4cc(C)cc(C)c4N3C(=O)N2)cc1` (centres undefined) gave LASV entry inh inconclusive, 2A StopGo inconclusive, SARS PLP yeast -9%, NS1 inh -17%, Cruzain Triton -1.4%, Marburg entry inh 7%[46.1 µM], Cruzain inh noDet -6% and RE007 growth inh -20%.
O=C1CN(C(=O)c2ccc(Cl)c(S(=O)(=O)N3CCc4ccccc43)c2)c2ccccc2N1 was read as LASV entry inh inconclusive, 2A StopGo inconclusive, SARS PLP yeast 0%, NS1 inh 9%, Marburg entry inh 3.5µM* and RE007 growth inh -7%.
`CCOC(=O)CN1C(=O)S/C(=C/c2cccc([N+](=O)[O-])c2O)C1=O` gave LASV entry inh 3%, 2A StopGo -22%, SARS PLP yeast -1%, Marburg entry inh inconclusive and RE007 growth inh -24%.
Screening Cc1ccc(N/C=C/C(=O)c2cccs2)cc1C returned LASV entry inh 10µM*, 2A StopGo inconclusive, SARS PLP yeast 0%, Marburg entry inh inconclusive and RE007 growth inh inconclusive.
CCOC(=O)c1sc(=NC(=O)c2ccc(C)c(C)c2)n(C)c1C was read as LASV entry inh 38%, 2A StopGo 72%[activator], SARS PLP yeast 0%, Marburg entry inh inconclusive and RE007 growth inh 11%.
For CCOc1ccc(CN2C(=O)c3ccccc3C2C(=O)NC(C)CC)cc1OC (centres undefined) the results were LASV entry inh inconclusive, 2A StopGo -5%, SARS PLP yeast 0%, NS1 inh -4%, Marburg entry inh 20%[46.1 µM] and RE007 growth inh -15%.
Screening CCN1CCN(CCn2c(=S)[nH]c3cc4c(cc3c2=O)OCO4)CC1 returned LASV entry inh -6%, 2A StopGo 2%, SARS PLP yeast 10%, NS1 inh 1%, Cruzain Triton 0.2%, Marburg entry inh inconclusive, Cruzain inh noDet -4% and RE007 growth inh 24%[3.69 µM].
`CCOc1ccc(Nc2sc(C(=O)c3cccc(OC)c3)c(N)c2S(=O)(=O)c2ccccc2)cc1` gave LASV entry inh inconclusive, 2A StopGo -20%, Cruzain Triton -2.4% and Cruzain inh noDet 13µM*.
Screening CCC(C)c1ccc(NC(=O)C2CCN(c3ncccn3)CC2)cc1 (centres undefined) returned LASV entry inh 2%, 2A StopGo 20%, SARS PLP yeast 13%, NS1 inh 15%, Cruzain Triton -4.1%, Marburg entry inh inconclusive, Cruzain inh noDet 17% and RE007 growth inh -23%.
`CN1/C(=C\C(=O)c2ccco2)C(C)(C)c2ccccc21` gave LASV entry inh inconclusive, 2A StopGo inconclusive, SARS PLP yeast -32%, NS1 inh -253%, Cruzain Triton 3.2%, Marburg entry inh -36%, Cruzain inh noDet 8% and RE007 growth inh inconclusive.
Screening CCOCCSc1nc2c(c(=O)[nH]c(=O)n2C)n1CCCc1ccccc1 returned LASV entry inh -12%, 2A StopGo -10%, SARS PLP yeast -7%, NS1 inh 5%, Cruzain Triton -7.8%, Marburg entry inh 2%, Cruzain inh noDet -3% and RE007 growth inh -8%.
`COc1ccc(CN(C)c2ccc(-c3nc(-c4ccc(OC)c(OC)c4)no3)cc2[N+](=O)[O-])cc1` gave LASV entry inh -1%[46.1 µM], 2A StopGo -12%, Cruzain Triton -5.4%, Marburg entry inh 18%[46.1 µM] and Cruzain inh noDet inconclusive.
COc1ccccc1-n1c(=O)n(C)c2c(C(N)=O)nc(-c3cc(OC)c(OC)c(OC)c3)nc21 was read as LASV entry inh 25%[46.1 µM], 2A StopGo -17%, Cruzain Triton 0.2% and Cruzain inh noDet -7%.
`O=C(COC(=O)c1cc([N+](=O)[O-])ccc1N1CCCC1)Nc1ccccc1OC(F)F` gave LASV entry inh -4%, 2A StopGo inconclusive, SARS PLP yeast -1%, Marburg entry inh -4% and RE007 growth inh 12%.
Cc1ccccc1CNC(=O)C1=Cc2ccccc2OC1 was read as LASV entry inh 18%[46.1 µM], 2A StopGo 42%[activator], Cruzain Triton -6.0% and Cruzain inh noDet -8%.
`Cn1c(=O)c2c(nc(NN=C3CCCCC3)n2C)n(C)c1=O` gave LASV entry inh -3%, 2A StopGo -2%, SARS PLP yeast 0%, Marburg entry inh -6%[46.1 µM] and RE007 growth inh -25%.
CCC(CC)NC(=O)CON=C1c2ccccc2-c2ccccc21 was read as LASV entry inh -23%, 2A StopGo -25%, SARS PLP yeast 23%, NS1 inh 0%, Cruzain Triton 2.2%, Marburg entry inh -23%, Cruzain inh noDet 9% and RE007 growth inh 10%.
`COc1ccc(N2CCN(C(=O)c3ccc4c(c3)N(Cc3cc(C)ccc3C)C(=O)c3ccccc3S4=O)CC2)cc1` (centres undefined) gave LASV entry inh inconclusive, 2A StopGo -8%, Cruzain Triton 1.6%, Marburg entry inh inconclusive and Cruzain inh noDet -6%.
Screening Cc1ccccc1Cn1cccc(C(=O)Nc2nc3ccccc3s2)c1=O returned LASV entry inh inconclusive, 2A StopGo 22µM*, Cruzain Triton 0.1% and Cruzain inh noDet 11%.
`O=C(NC1(O)C(=O)c2ccccc2C1=O)c1ccc(C(F)(F)F)cc1` gave LASV entry inh inconclusive, 2A StopGo -12%, SARS PLP yeast -3%, NS1 inh -5%, Marburg entry inh 0% and RE007 growth inh -6%.
For CCN(c1ccccc1)S(=O)(=O)c1ccc(Cl)c(C(=O)OCC(=O)c2[nH]c(C)c(C(C)=O)c2C)c1 the results were LASV entry inh 3%, 2A StopGo 0%, SARS PLP yeast -3%, NS1 inh -9%, Cruzain Triton -10%, Marburg entry inh -11%, Cruzain inh noDet -13% and RE007 growth inh 3%.
For COCCNC(=S)N1CCc2cc(OC)c(OC)cc2C1COc1ccc(F)cc1 (centres undefined) the results were LASV entry inh -5%[46.1 µM], 2A StopGo -12%, SARS PLP yeast 1%, Marburg entry inh -17%[46.1 µM] and RE007 growth inh -9%.

Already shown: 2 of the compounds above.
For CCN(c1ccccc1)S(=O)(=O)c1ccc(Cl)c(C(=O)OCC(=O)c2[nH]c(C)c(C(C)=O)c2C)c1 the results were LASV entry inh 3%, 2A StopGo 0%, SARS PLP yeast -3%, NS1 inh -9%, Cruzain Triton -10%, Marburg entry inh -11%, Cruzain inh noDet -13% and RE007 growth inh 3%.
For COCCNC(=S)N1CCc2cc(OC)c(OC)cc2C1COc1ccc(F)cc1 (centres undefined) the results were LASV entry inh -5%[46.1 µM], 2A StopGo -12%, SARS PLP yeast 1%, Marburg entry inh -17%[46.1 µM] and RE007 growth inh -9%.
